# D2 antagonist: HTS Assay for Allosteric Antagonists of the Human D2 Dopamine Receptor: Primary Screen for Antagonists; D(2) dopamine receptor (Homo sapiens), P14416; HEK293 TREx D2 cells, calcium flux, dopamine EC80; inhibition, % at 10 µM; 340,000 compounds, 2% hits; in the data active = inhibition above about 30%; note: 0% is about no effect
#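 Tetracycline-induced HEK293 T-REx cells expressing D2 force-coupled to calcium signalling were dye-loaded, exposed to compound for 180 s, then challenged with an EC80 of dopamine; calcium flux was followed kinetically for a further 180 s.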
# D2 agonist: HTS Assay for Allosteric Agonists of the Human D2 Dopamine Receptor: Primary Screen for Agonists | D(2) dopamine receptor (Homo sapiens), P14416 | HEK293 T-REx D2 cells, calcium flux agonist mode | activation, % at 2 µM | 340,000 compounds, 0.53% hits | AID 485358, 2010;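 active = activation over 3 SD above normal in the single-dose calcium agonist read, cut at about 30% in these data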; note: 0% is about no effect
#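 HEK293 Trex D2 cells, tetracycline-induced, o/n 30 C 5% CO2; no-wash Ca dye, RT 30–90 min; 10-cycle baseline, 23 nl cpd added, kinetic Ca read 180 s; agonist hits = positive Ca response.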
# rTrxR1 inhibitor: qHTS Assay for Inhibitors of Mammalian Selenoprotein Thioredoxin Reductase 1 (TrxR1): qHTS; Thioredoxin reductase 1, cytoplasmic (Rattus norvegicus), O89049; recombinant rTrxR1, NADPH fluorescence consumption, selenite substrate; Potency, µM (highest dose often 114 µM), for inactives: at the top dose activity change, negative = inhibition, actives largely listed as inhibitors; 390,000 compounds, 1% hits; note: potency is the fitted concentration of half-maximal effect; % is set by controls: 0 for no effect and ±100 for the full control effect; nearly all actives have a fitted effect of over 65% in size
#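 Rat TrxR1 (90 nM in the dispensed reagent) was pre-reduced with 400 uM NADPH for 5 min at room temperature, then incubated with compound for 15 min. After 400 uM selenite was added, NADPH fluorescence (Ex 340/Em 450 nm) was followed for 8 min.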
# Pin1 inhibitor: qHTS Assay to Find Inhibitors of Pin1; Peptidyl-prolyl cis-trans isomerase NIMA-interacting 1 (Homo sapiens), Q13526; Pin1 FP peptide displacement, HiFluor488, 10 min; Potency, µM (top dose mostly 115 µM), for the others: at the highest dose activity, negative = inhibition, usual class: inhibitors; 390,000 compounds, 0.009% hits; active = well fitted inhibition curve with a large enough effect in the polarisation, with a control signal flat, not every such curve was filed as active; inconclusive = small, poorly fitted or top-dose-only effect, or effect the other way, or a change in a side signal; inactive = no such curve, though single readings can be large or run the other way; the % refers to the polarisation; note: potency is the fitted concentration of half-maximal effect; % is set by controls: 0 for no effect and ±100 for the full control effect
# Target sequence (Q13526 whole entry, looked up): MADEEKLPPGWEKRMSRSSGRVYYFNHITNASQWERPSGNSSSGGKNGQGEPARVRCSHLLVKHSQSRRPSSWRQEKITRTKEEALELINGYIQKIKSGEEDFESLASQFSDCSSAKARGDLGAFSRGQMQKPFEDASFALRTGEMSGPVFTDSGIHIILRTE
# TrxR1 substrate: qHTS Assay for Substrates of Mammalian Selenoprotein Thioredoxin Reductase 1 (TrxR1): qHTS. purified TrxR1 substrate turnover, NADPH consumption readout. 390,000 compounds, 0.01% hits. Potency, µM (series often up to 114 µM), inactives show at the top dose activity change, negative = substrate turnover. Thioredoxin reductase 1, cytoplasmic (Rattus norvegicus), O89049; note: potency is the fitted concentration of half-maximal effect; % is set by controls: 0 for no effect and ±100 for the full control effect; nearly all actives have a fitted effect of over 50% in size
#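 Rat TrxR1, dispensed at 90 nM, was prereduced with 400 uM NADPH (final) for 5 min at ~22 deg C, then incubated with compound 15 min before 400 uM selenite. A first-read NADPH fluorescence drop versus no-compound background flagged substrates.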
# The depositor's hits bear a star; u = inconclusive; x = not tested or not shown; [ ] = remark or other dose. Unless noted, calls come from the whole dose curve; as a rule, active = well fitted inhibition curve with a large enough effect; inconclusive = small, poorly fitted or top-dose-only effect; inactive = no such curve, though single readings can be large or run the other way. An excerpt; count on the stated rates, not on these rows.
# Values run as follows: D2 antagonist	D2 agonist	rTrxR1 inhibitor	Pin1 inhibitor	TrxR1 substrate
COc1cc(NC(=O)Cn2c(=O)oc3cc(S(=O)(=O)N4CCCCCC4)ccc32)cc(OC)c1
 : x	0.1	27%[57.1 µM]	6%	1%[57.1 µM]
COc1ccc(-c2cn[nH]c2-c2ccc(OC)cc2)cc1
 : 8	-2.2	10%	1%	-6%
Cc1cn([C@H]2C[C@H](N=[N+]=[N-])[C@@H](CO)O2)c(=O)[nH]c1=O
 : -5	2.1	0%[57.1 µM]	-4%	-1%[57.1 µM]
CCCC(=O)Nc1ccc(OCC(O)CNC(C)C)c(C(C)=O)c1 (centres undefined)
 : -14	-0.5	21%	-10%	3%
O=C(O)C[C@@H](O)C(=O)O
 : x	x	11%	-1%	6%
CO[C@@]12[C@H](COC(N)=O)C3=C(C(=O)C(C)=C(N)C3=O)N1C[C@@H]1N[C@@H]12
 : -7	-0.2	13%	1%	6%
Oc1cc(Cl)cc(Cl)c1Cl
 : -3	0.3	11%	0%	8%
CC(=O)OCC(=O)[C@@]12OC(C)(C)O[C@@H]1CC1C3C[C@H](F)C4=CC(=O)C=CC4(C)[C@@]3(F)C(O)CC12C (some centres undefined)
 : x	x	14%	0%	3%
CN(C)c1ccc(O)c2c1CC1CC3[C@@H](N(C)C)C(=O)C(C(N)=O)C(=O)[C@]3(O)C(=O)C1C2=O (some centres undefined)
 : x	x	-10%	-14%	-8%
CO[C@@]12[C@@H]3N[C@@H]3CN1C1=C(C(=O)C(N)=C(C)C1=O)[C@@H]2COC(N)=O
 : x	x	u	-3%	-19%
NCCS(=O)(=O)O
 : x	x	5%[57.1 µM]	-9%	6%[57.1 µM]
NC(=O)c1cccnc1
 : 40*	1.8	24%	-14%	7%
CC(C)(C)CC(C)(C)c1ccc(OCCOCC[N+](C)(C)Cc2ccccc2)cc1
 : x	x	7%	2%	1%

# Eleven of the compounds above, as tab-separated lines.
smiles	D2 antagonist	D2 agonist	rTrxR1 inhibitor	Pin1 inhibitor	TrxR1 substrate
Cc1cn([C@H]2C[C@H](N=[N+]=[N-])[C@@H](CO)O2)c(=O)[nH]c1=O	-5	2.1	0%[57.1 µM]	-4%	-1%[57.1 µM]
CCCC(=O)Nc1ccc(OCC(O)CNC(C)C)c(C(C)=O)c1 (centres undefined)	-14	-0.5	21%	-10%	3%
O=C(O)C[C@@H](O)C(=O)O	x	x	11%	-1%	6%
CO[C@@]12[C@H](COC(N)=O)C3=C(C(=O)C(C)=C(N)C3=O)N1C[C@@H]1N[C@@H]12	-7	-0.2	13%	1%	6%
Oc1cc(Cl)cc(Cl)c1Cl	-3	0.3	11%	0%	8%
CC(=O)OCC(=O)[C@@]12OC(C)(C)O[C@@H]1CC1C3C[C@H](F)C4=CC(=O)C=CC4(C)[C@@]3(F)C(O)CC12C (some centres undefined)	x	x	14%	0%	3%
CN(C)c1ccc(O)c2c1CC1CC3[C@@H](N(C)C)C(=O)C(C(N)=O)C(=O)[C@]3(O)C(=O)C1C2=O (some centres undefined)	x	x	-10%	-14%	-8%
CO[C@@]12[C@@H]3N[C@@H]3CN1C1=C(C(=O)C(N)=C(C)C1=O)[C@@H]2COC(N)=O	x	x	u	-3%	-19%
NCCS(=O)(=O)O	x	x	5%[57.1 µM]	-9%	6%[57.1 µM]
NC(=O)c1cccnc1	40*	1.8	24%	-14%	7%
CC(C)(C)CC(C)(C)c1ccc(OCCOCC[N+](C)(C)Cc2ccccc2)cc1	x	x	7%	2%	1%
